# LANA-H2B inh: blocks KSHV LANA binding to histone H2A/H2B; actives 0.6% (n = 320,000); cell-free LANA-H2A/H2B peptide, fluorescence polarization; inhibition, % (no concentration beside the values); in the data active = inhibition mostly above about 10%, no sharp cut-off; inactive = mostly below about 6.7%;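 also: stock transfer was 7.5 nL into about 10 µL; 0% = median of vehicle wells and 100% = median of positive control wells; one replicate is shown; the record names a cut of 25% in any replicate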
# Target sequence (Q9QR71 whole entry, looked up): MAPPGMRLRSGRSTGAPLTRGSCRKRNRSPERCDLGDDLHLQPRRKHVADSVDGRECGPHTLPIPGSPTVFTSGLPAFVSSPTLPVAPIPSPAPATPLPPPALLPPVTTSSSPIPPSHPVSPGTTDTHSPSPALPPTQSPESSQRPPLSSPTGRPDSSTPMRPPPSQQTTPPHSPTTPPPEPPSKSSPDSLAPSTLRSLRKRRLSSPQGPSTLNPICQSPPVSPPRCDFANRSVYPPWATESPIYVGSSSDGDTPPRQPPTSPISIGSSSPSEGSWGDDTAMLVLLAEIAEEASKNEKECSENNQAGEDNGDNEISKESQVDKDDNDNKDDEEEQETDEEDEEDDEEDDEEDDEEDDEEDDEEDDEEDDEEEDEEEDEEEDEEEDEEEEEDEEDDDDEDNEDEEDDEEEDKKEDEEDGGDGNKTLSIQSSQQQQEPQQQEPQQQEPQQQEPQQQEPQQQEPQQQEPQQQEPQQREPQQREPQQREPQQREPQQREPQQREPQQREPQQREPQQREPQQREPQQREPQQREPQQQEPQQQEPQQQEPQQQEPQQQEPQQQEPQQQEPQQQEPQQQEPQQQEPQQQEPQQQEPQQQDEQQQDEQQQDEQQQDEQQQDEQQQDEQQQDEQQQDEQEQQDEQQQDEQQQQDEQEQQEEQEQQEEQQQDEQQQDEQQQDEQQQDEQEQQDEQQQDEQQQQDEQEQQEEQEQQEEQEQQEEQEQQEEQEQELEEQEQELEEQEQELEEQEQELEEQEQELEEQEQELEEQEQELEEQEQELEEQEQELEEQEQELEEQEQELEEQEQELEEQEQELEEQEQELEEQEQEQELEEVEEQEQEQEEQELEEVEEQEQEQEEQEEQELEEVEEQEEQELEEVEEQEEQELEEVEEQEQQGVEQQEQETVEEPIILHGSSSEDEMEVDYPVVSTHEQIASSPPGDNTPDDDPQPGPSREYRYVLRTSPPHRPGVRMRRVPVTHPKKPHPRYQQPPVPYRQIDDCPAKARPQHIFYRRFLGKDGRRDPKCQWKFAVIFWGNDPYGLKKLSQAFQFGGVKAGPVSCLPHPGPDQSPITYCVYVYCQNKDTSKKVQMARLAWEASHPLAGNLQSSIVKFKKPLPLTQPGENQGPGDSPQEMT
# B2AR ag: agonists of human beta-2 adrenergic receptor inducing internalization; Am2.2-beta2AR cells, FAP receptor internalization, flow cytometry; reference of the scale not given here; response, % (concentration not given with the values); actives 0.43% (n = 340,000);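 active = response above a set limit, near 3 SD of response in nonfluorescent compounds, cut at about 42% in these data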;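 also: stock transfer was 100 nL into about 11 µL; a reference agonist was the positive control; negative values mostly stem from fluorescent compounds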
# T cruzi repl: blocks replication of Trypanosoma cruzi | T. cruzi beta-gal in NIH3T3, luminescence, 90 h | inhibition, % (concentration not given with the values) | AID 1885 | actives 1.4% (n = 300,000);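 active = mean inhibition across valid replicates above about 55%, limit read from the data; inconclusive = mean below that limit but half or more replicates reach it; inactive = mean below it, under half of replicates reach it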;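 also: signal also drops with host cell toxicity which is not excluded here; 0% = plate median of DMSO wells and 100% = zero luminescence signal; higher percent means less beta-gal luminescence so fewer parasites; stock transfer was 50 nL into about 50 µL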
# Beta apoptosis: beta cell apoptosis inhibition. actives 0.8% (n = 300,000). INS-1E cytokine-induced death, ATP luminescence, 48 h; percent of positive-control rescue, neutral wells zero. protection from apoptosis, % (concentration not given with the values);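 active = all replicates at 75% or more, or half of them and the mean; inconclusive = half reach 75% but not the mean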;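 also: 0% = cytokine-treated negative control wells and 100% = positive control rescue; higher means more ATP so stronger rescue from cytokine killing; wells of about 40 µL received 100 nL stock; the first replicate is given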
# Calb FLC: affects C. albicans growth with fluconazole; AID 1979; C. albicans CaCi-2 (fluconazole-resistant clinical isolate) + fluconazole, Alamar Blue growth, 48 h; growth inhibition, % (concentration not given with the values); actives 0.57% (n = 300,000);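 active = most replicates above 75%; inconclusive = exactly half above 75%; inactive = most below 75%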;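 also: all wells also contain fluconazole at 8 µg/ml as a sub-toxic cotreatment; 0% = median of DMSO wells and 100% = median of geldanamycin control wells; wells of about 8 µL received 7.5 nL stock; the first replicate is given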
# Ecoli rRNA inh: inhibitors of bacterial rRNA selective over humanized ribosomes; GFP signal change (wild-type ribosome), % (test concentration not listed); AID 720706; E. coli WT GFP vs humanized-ribosome RFP mutants, fluorescence, 24 h; hits give low values; DMSO median 0, no signal -100; actives 1.6% (n = 350,000);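 active = significant combined selectivity score with lowered wild-type GFP, culture density cut under 30%, mutant RFP and density less affected; inactive = any of these conditions unmet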; also: one replicate is shown; some compounds called inactive have numbers as strong as hits
# ALR H2O2 inh: inhibitors of human sulfhydryl oxidase ALR; inhibition, % (no concentration beside the values); AID 485317; purified ALR, DTT oxidation, H2O2 HRP-luminol luminescence; actives 3.8% (n = 290,000); P55789;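 active = mean and each replicate at 75% or more; inconclusive = only one of the two met; inactive = neither met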;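 also: stock transfer was 7.5 nL into about 7.5 µL; 0% = neutral wells and 100% = wells with inactivated enzyme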
# Bfl-1 A1 inh: inhibitors of the anti-apoptotic protein A1, read as caspase activation. MEF A1-2A-BIM cells, Caspase-Glo 3/7 luminescence, 3 h; percent of clofoctol response, vehicle zero. caspase activation, % (no concentration beside the values). actives 0.066% (n = 330,000);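 active = over half of replicate activation scores above 10%, or exactly half above 10 with the replicate mean above 10; inconclusive = replicate mean below 10 yet half the replicates above 10; inactive = over half of replicates below 10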;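 also: wells of about 30 µL received 50 nL stock; many hits fall short of the cut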
# Ecoli rRNA inh OD600: second read-out of Ecoli rRNA inh, no call of its own (marks repeat the call); OD600 change, %; measured here: OD600 growth;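 optical density of the mix in the first replicate; 0 = DMSO median and -100 = no signal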
# Ecoli rRNA inh RFP: also measured in Ecoli rRNA inh; calls as there; RFP signal change, %; measured here: RFP humanized mutant strains;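 first replicate; 0 = DMSO median and -100 = no signal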
# Starred values were filed as active, the others as inactive; i = inactive; ? = inconclusive; nt = not tested or not shown. Only part of the results is shown; rates above refer to the full screens.
SMILES,LANA-H2B inh,B2AR ag,T cruzi repl,Beta apoptosis,Calb FLC,Ecoli rRNA inh,Ecoli rRNA inh OD600,Ecoli rRNA inh RFP,ALR H2O2 inh,Bfl-1 A1 inh
Cc1cccc(C(=O)C2CCOC(C)(C)C2)c1 (stereo not drawn),-7.6,1,-2,0,1,0,-11,-5.1,-22,-0.3
O=C(N1CCOCC1)n1nnc2ccccc21,-1.4,7,29,-8,-30,nt,nt,nt,-3,0.4
COc1cc(N2C(=O)NC3CC2(C)Oc2ccccc23)cc(OC)c1OC (stereo not drawn),2.7,5,4,nt,7,nt,nt,nt,nt,1.0
O=C(NCCOc1ccccc1Cl)C(=O)NCCOc1ccccc1Cl,-4.9,-1,4,1,7,8,4,-6.3,-3,-0.5
CCCCN(C(=O)C1CCCO1)c1c(N)n(CCC)c(=O)[nH]c1=O (stereo not drawn),-1.8,0,nt,-7,nt,14,9,-2.4,-1,-0.7
O=C(Cn1nnc(-c2ccc([N+](=O)[O-])cc2)n1)NNC(=O)c1ccccc1,-2.8,3,7,-6,2,nt,nt,nt,nt,-0.2
CC(=O)c1ccc(N2CCN(C(=O)c3nn(Cc4ccccc4)c(=O)c4ccccc34)CC2)cc1,-3.2,4,34,8,17,nt,nt,nt,-6,0.4
CCOc1c(Br)cc(CNC2CCCCCCC2)cc1OC,-5.2,26,42,9,7,-21,-38,20,-2,-0.1
COc1cc(NC(=O)c2cc3c(Cl)nc4ccccc4c3s2)cc(OC)c1OC,5.6,0,-6,0,-9,nt,nt,nt,12,-0.4
O=C(O)c1cc2n(n1)CCN(Cc1ccccc1Cl)C2=O,-0.3,-3,-6,-7,2,9,6,-2.1,-2,-0.7
NC(=S)N/N=C\c1c2ccccc2cc2ccccc12,nt,10,nt,3,nt,nt,nt,nt,4,-0.4
Cc1ccc(S(=O)(=O)Nc2c(C)nc3nc(C)[nH]n3c2=O)c(C)c1,0.1,6,-7,7,-10,5,11,-1.2,17,-0.5
Cc1ccc(Nc2nc(C)cc(C)n2)c(Br)c1,0.6,0,-9,31,-39,nt,nt,nt,2,-1.5
Cc1ccc(CNC(=O)CCS(=O)(=O)c2ccc(Br)s2)o1,-0.8,-12,-22,-5,13,nt,nt,nt,13,0.0
CC1CCN(C(=O)c2[nH]cnc2C(=O)N[C@@H](C)c2ccccc2)CC1,3.1,4,nt,1,nt,-9,-5,-2.4,-1,-0.8
Cc1ccc(-n2c3c(cc(C(=O)NCc4ccco4)c2=O)C(=O)CCC3)cc1,-3.9,-3,4,-2,24,11,12,-0.6,-6,-0.1
COC(=O)c1ccc(NC(=O)CS(=O)(=O)c2ccccc2)cc1,-0.6,-7,-5,nt,27,4,6,-0.3,-7,0.3
CCOc1ccc(NC(=O)CN(C)C(=O)c2c(-c3c(F)cccc3Cl)noc2C)cc1OCC,0.8,3,-6,-3,4,10,21,0.7,-18,0.8
CCOC(=O)c1c(NC(=O)c2ccccc2Br)sc2c1CCc1ccccc1-2,8.2,20,48,-9,26,nt,nt,nt,-7,0.7
CCN1CCN(C(=O)C2=C(C(=O)O)CCCC2)CC1,2.7,1,-2,-4,9,nt,nt,nt,-4,-0.8
C=CCOC(=O)C1=C(C)N=C2SCCC(=O)N2C1/C=C/c1ccccc1OC (stereo not drawn),1.3,-4,2,-2,-24,-13,-22,-4.1,4,-0.8
CCOc1ccc(C2C(C(=O)c3cccs3)=C(O)C(=O)N2CCCn2ccnc2)cc1 (stereo not drawn),-1.2,nt,nt,-1,nt,nt,nt,nt,2,1.5
O=C(/C=C/c1ccc2c(c1)OCO2)Nc1nc(-c2ccc(F)cc2)cs1,4.8,nt,12,1,18,nt,nt,nt,-1,0.0
OC(CN1CCNCC1)Cn1c2ccccc2c2ccccc21 (stereo not drawn),2.7,6,-6,-5,-1,6,6,1.4,-12,0.0
O=S(=O)(NCc1ccccc1)c1ccc(S(=O)(=O)N2CCCC2)cc1,-1.4,-2,20,4,1,21,15,1.7,nt,0.1
SMILES,LANA-H2B inh,B2AR ag,T cruzi repl,Beta apoptosis,Calb FLC,Ecoli rRNA inh,Ecoli rRNA inh OD600,Ecoli rRNA inh RFP,ALR H2O2 inh,Bfl-1 A1 inh
O=[N+]([O-])c1cccc(S(=O)(=O)Nc2nc3ccccc3nc2Nc2cccc(S(=O)(=O)N3CCCCC3)c2)c1,nt,10,-51,nt,26,5,1,2.1,nt,nt
CC(C)(C)NC(=O)c1cccc2c1C(=O)c1ccccc1-2,1.1,-8,-5,2,2,nt,nt,nt,-3,-0.6
CCCC(=O)NCCCc1nc2ccccc2n1C,1.0,0,4,-3,3,0,10,-5.6,18,1.0
CCOC(=O)CCCC(=O)N1CCOCCOCCN(C(=O)CCCC(=O)OCC)CCOCCOCC1,-2.5,8,1,-3,?,3,-2,2.3,19,-0.2
COc1cc(C(=O)OCC(C)=O)cc(NC(=O)c2ccco2)c1OC,3.0,5,-6,-3,-11,2,-3,-0.2,-7,-1.5
C[C@@H]1CC=C[C@H]2[C@H]1C(=O)N(Cc1ccccc1)[C@H]2c1ccc(/C=C/c2ccccc2)cc1F,-0.7,10,46,5,-5,10,4,-2.7,nt,-0.5
Cc1ccc(/C(N)=N/OC(=O)N2c3ccccc3Sc3ccccc32)cc1,3.6,nt,48,1,16,nt,nt,nt,51,-0.2
N#Cc1c(N)nc2c(c1-c1ccco1)CCCCC2,-7.8,2,2,-6,25,nt,nt,nt,-17,0.0
Cn1nc(C(F)(F)F)c(C#N)c1N1CCN(c2cccc(C(F)(F)F)c2)CC1,-4.5,3,20,0,-8,nt,nt,nt,nt,0.1
CCSc1ccccc1C(=O)Nc1ccc(S(=O)(=O)NC(C)=O)cc1,3.9,-3,3,-3,1,9,2,1.8,96*,0.6
COc1ccc(NC(C)=O)cc1S(=O)(=O)NC(Cc1ccccc1)C(=O)O (stereo not drawn),8.4,-1,-8,-10,-16,6,13,-6.9,-2,1.3
Cc1cccc(NC(=S)NC(=O)Cc2ccccc2)c1C,-0.5,-1,-17,-2,-1,1,-3,-5.5,-3,0.5
O=C(CO/N=C/c1cccc([N+](=O)[O-])c1)Nc1ccc2ccccc2c1,1.3,-4,2,-1,-38,nt,nt,nt,-11,-0.9
O=C(COC(=O)c1cc(F)cc(F)c1)Nc1cccnc1Cl,0.0,-2,-9,-6,5,4,8,-0.2,6,0.6
O=c1[nH]c2ccc(NS(=O)(=O)c3ccc(Cl)cc3)cc2[nH]1,1.7,3,-2,-7,35,7,3,-0.4,18,-1.2
CCCCN1CNC(=S)N(Cc2ccccc2)C1,-2.8,-5,-16,-1,-11,-4,0,-8.1,-2,0.7
COc1ccc(C2=CC(c3ccc(F)cc3)n3nnnc3N2)cc1 (stereo not drawn),5.8,-4,-19,-2,20,nt,nt,nt,12,-0.1
CCOC(=O)c1nn(-c2ccc(Cl)cc2)c2nc(-c3ccc(C)cc3)c(C#N)c(=O)n12,-4.4,3,9,16,10,nt,nt,nt,-4,?
Cc1ccc(C(=O)NCCc2ccncc2)cc1,-4.6,-8,-15,-4,3,nt,nt,nt,-1,-0.6
Cc1ccc2[nH]cc(C(=O)CN3CCOCC3)c2c1,1.4,6,-8,0,6,-1,-13,0.2,1,0.4
CCOc1ccc(NC(=O)Nc2ccc3c(c2)CCC3)cc1,-1.5,3,-2,-3,4,6,14,1.3,-10,-0.3
C=CCN(c1ccccc1)S(=O)(=O)c1cccc(C(=O)Oc2ccc3c(C)cc(=O)oc3c2)c1,-0.7,-5,-9,4,1,nt,nt,nt,-3,0.3
Cc1ccc2c(c1)-n1c(nc3cc(C)ccc3c1=O)C(Cc1ccccc1)NC2=O (stereo not drawn),-0.3,nt,nt,2,nt,0,-5,0.7,-2,0.2
CCN1CCN(c2cc3c(cc2F)c(=O)c(C(=O)O)cn3C2CC2)CC1,-8.0,4,-2,-5,nt,-61,-82,-17,nt,-1.0
O=C(OCc1cc(=O)n2ccsc2n1)C1(c2ccc(Cl)cc2)CC1,0.5,-10,nt,0,nt,-37,-57,-16,-2,1.0

# In the list so far, 4 have bromine:
SMILES,LANA-H2B inh,B2AR ag,T cruzi repl,Beta apoptosis,Calb FLC,Ecoli rRNA inh,Ecoli rRNA inh OD600,Ecoli rRNA inh RFP,ALR H2O2 inh,Bfl-1 A1 inh
CCOc1c(Br)cc(CNC2CCCCCCC2)cc1OC,-5.2,26,42,9,7,-21,-38,20,-2,-0.1
Cc1ccc(Nc2nc(C)cc(C)n2)c(Br)c1,0.6,0,-9,31,-39,nt,nt,nt,2,-1.5
Cc1ccc(CNC(=O)CCS(=O)(=O)c2ccc(Br)s2)o1,-0.8,-12,-22,-5,13,nt,nt,nt,13,0.0
CCOC(=O)c1c(NC(=O)c2ccccc2Br)sc2c1CCc1ccccc1-2,8.2,20,48,-9,26,nt,nt,nt,-7,0.7

# Continuation.
SMILES,LANA-H2B inh,B2AR ag,T cruzi repl,Beta apoptosis,Calb FLC,Ecoli rRNA inh,Ecoli rRNA inh OD600,Ecoli rRNA inh RFP,ALR H2O2 inh,Bfl-1 A1 inh
CCc1ccc(CNC(=O)C2CCN(S(=O)(=O)N3CC(C)CC(C)C3)CC2)cc1 (stereo not drawn),-2.6,-10,7,-5,22,7,7,1.3,-6,1.5
CC(C)(C)NCc1cc(Br)ccc1OCc1cccs1,-5.6,8,-7,16,-2,nt,nt,nt,nt,-0.4
COc1ccc(OC)c(S(=O)(=O)n2c([N+](=O)[O-])cnc2C)c1,-5.5,6,-2,0,-8,-22,-23,-1.7,0,-0.9
Cc1cc(NC(=O)CSc2nnc(-c3ccco3)o2)no1,7.0,3,-27,-2,2,12,1,1.0,-3,0.0
O=C1c2ccccc2C(=O)N1CC(O)COc1ccc(Br)cc1 (stereo not drawn),2.1,-3,-12,nt,4,3,4,-1.6,-4,0.5
CCn1c(=S)sc2c(=O)n(CC(=O)Nc3ccc(OC)cc3)c(C)nc21,-3.2,-3,13,-2,56,-2,5,-4.8,-2,-0.1
CC(C)C(=O)c1cc2c(cc1NC(=O)Nc1cccc3ccccc13)OCCO2,-2.3,nt,16,-4,0,nt,nt,nt,1,-0.1
O=C(Cn1cnc2sc(-c3ccccc3)cc2c1=O)NCCc1ccccc1,5.4,-3,-5,4,1,5,16,3.8,27,0.6
O=C(COc1ccc2ccccc2c1)Nc1ccccc1C(=O)O,1.5,7,-6,0,nt,2,-26,-8.1,-3,-1.6
O=S(=O)(c1cccc(NC(=S)N2CCN(c3ccc(F)cc3)CC2)c1)C(F)F,i,0,-23,-7,-28,-17,-9,-2.0,35,-0.7
CC(=O)c1cccc(NC(=S)N2c3ccccc3CC2C)c1 (stereo not drawn),3.0,7,-9,5,-30,13,14,0.5,-1,1.2
CCOc1ccc(NC(=O)CCCn2c(=S)[nH]c3ccsc3c2=O)cc1,nt,-1,5,4,6,-18,-26,-0.9,6,-0.3
